High-throughput results deposited in PubChem by Broad Institute.
rRNA inh HTS: inhibitors of bacterial rRNA selective over humanized ribosomes. GFP signal change (wild-type ribosome), % (concentration not given with the values). AID 720706. E. coli WT GFP vs humanized-ribosome RFP mutants, fluorescence, 24 h; active compounds read low; DMSO median 0, no signal -100. actives 1.6% (n = 350,000);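 active = significant combined selectivity score with lowered wild-type GFP, culture density cut under 30%, mutant RFP and density less affected; inactive = any of these conditions unmet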; also: one replicate is shown; some compounds called inactive have numbers as strong as hits
T cruzi repl: blocks replication of Trypanosoma cruzi | T. cruzi beta-gal in NIH3T3, luminescence, 90 h | actives 1.4% (n = 300,000) | inhibition, % (no concentration beside the values);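 active = mean inhibition across valid replicates above about 55%, limit read from the data; inconclusive = mean below that limit but half or more replicates reach it; inactive = mean below it, under half of replicates reach it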;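 also: signal also drops with host cell toxicity which is not excluded here; 0% = plate median of DMSO wells and 100% = zero luminescence signal; higher percent means less beta-gal luminescence so fewer parasites; stock transfer was 50 nL into about 50 µL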
ALR inh: inhibitors of human sulfhydryl oxidase ALR; actives 3.8% (n = 290,000); inhibition, % (test concentration not listed); AID 485317; P55789; purified ALR, DTT oxidation, H2O2 HRP-luminol luminescence;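 active = mean and each replicate at 75% or more; inconclusive = only one of the two met; inactive = neither met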;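 also: stock transfer was 7.5 nL into about 7.5 µL; 0% = neutral wells and 100% = wells with inactivated enzyme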
Target sequence (P55789 whole entry, looked up): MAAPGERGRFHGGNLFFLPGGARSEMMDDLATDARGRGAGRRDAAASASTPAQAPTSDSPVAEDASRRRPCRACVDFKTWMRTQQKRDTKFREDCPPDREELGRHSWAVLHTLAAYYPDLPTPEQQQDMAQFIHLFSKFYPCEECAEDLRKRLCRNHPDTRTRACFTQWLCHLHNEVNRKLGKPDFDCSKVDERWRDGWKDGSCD
RanGTP-Impb inh: inhibitors of RanGTP-importin-beta interaction, primary screen, biochemical, FRET, CFP-Ran, YFP-importin-beta, homogeneous | cell-free CFP-Ran/YFP-importin-beta FRET ratio | inhibition, % (concentration not given with the values) | actives 1.1% (n = 300,000);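 active = most replicates above 15%; inconclusive = exactly half above 15%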;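 also: 0% = DMSO wells and 100% = Ran loaded with GDP instead of GTP; wells of about 40 µL received 100 nL stock; the first replicate is given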
Calb FLC: affects C. albicans growth with fluconazole; C. albicans CaCi-2 (fluconazole-resistant clinical isolate) + fluconazole, Alamar Blue growth, 48 h; actives 0.57% (n = 300,000); growth inhibition, % (concentration not given with the values);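 active = most replicates above 75%; inconclusive = exactly half above 75%; inactive = most below 75%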;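 also: all wells also contain fluconazole at 8 µg/ml as a sub-toxic cotreatment; 0% = median of DMSO wells and 100% = median of geldanamycin control wells; wells of about 8 µL received 7.5 nL stock; the first replicate is given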
Beta apoptosis: beta cell apoptosis inhibition; INS-1E cytokine-induced death, ATP luminescence, 48 h; percent of positive-control rescue, neutral wells zero; protection from apoptosis, % (no concentration beside the values); actives 0.8% (n = 300,000);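 active = all replicates at 75% or more, or half of them and the mean; inconclusive = half reach 75% but not the mean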;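 also: 0% = cytokine-treated negative control wells and 100% = positive control rescue; higher means more ATP so stronger rescue from cytokine killing; wells of about 40 µL received 100 nL stock; the first replicate is given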
FGF22 binding: binders of recombinant human FGF22 by thermal shift | Q9HCT0 | SYPRO orange fluorescence; percent of sucrose octasulfate shift, DMSO zero | calls only at 9.99 µM | actives 1.5% (n = 340,000) | AID 651658;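 active = melting point raised past a set limit in the mean and every replicate; inconclusive = no clear call; three in four hits are not shown here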
Target sequence (Q9HCT0 whole entry, looked up): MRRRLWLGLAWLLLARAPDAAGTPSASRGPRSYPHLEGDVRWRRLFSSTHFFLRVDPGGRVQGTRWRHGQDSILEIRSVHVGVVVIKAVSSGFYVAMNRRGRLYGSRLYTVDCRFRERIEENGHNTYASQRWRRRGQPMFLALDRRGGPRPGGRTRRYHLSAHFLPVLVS
AF4-AF9 inh: blocks AF4 peptide binding to human AF9; AlphaScreen, biotin-AF4 peptide binding to FLAG-AF9; inhibition, % at 10 µM; actives 0.47% (n = 350,000); AID 651704; P42568;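 active = every replicate reaching a set inhibition limit, whatever the replicate mean, cut at about 25% in these data; inconclusive = mean inhibition reaches that limit but some replicates miss it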;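 also: 0% = plate neutral control median and 100% = total signal loss; the record names both 10 and 1 µM as test concentration; the first replicate is given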
Target sequence (P42568 whole entry, looked up): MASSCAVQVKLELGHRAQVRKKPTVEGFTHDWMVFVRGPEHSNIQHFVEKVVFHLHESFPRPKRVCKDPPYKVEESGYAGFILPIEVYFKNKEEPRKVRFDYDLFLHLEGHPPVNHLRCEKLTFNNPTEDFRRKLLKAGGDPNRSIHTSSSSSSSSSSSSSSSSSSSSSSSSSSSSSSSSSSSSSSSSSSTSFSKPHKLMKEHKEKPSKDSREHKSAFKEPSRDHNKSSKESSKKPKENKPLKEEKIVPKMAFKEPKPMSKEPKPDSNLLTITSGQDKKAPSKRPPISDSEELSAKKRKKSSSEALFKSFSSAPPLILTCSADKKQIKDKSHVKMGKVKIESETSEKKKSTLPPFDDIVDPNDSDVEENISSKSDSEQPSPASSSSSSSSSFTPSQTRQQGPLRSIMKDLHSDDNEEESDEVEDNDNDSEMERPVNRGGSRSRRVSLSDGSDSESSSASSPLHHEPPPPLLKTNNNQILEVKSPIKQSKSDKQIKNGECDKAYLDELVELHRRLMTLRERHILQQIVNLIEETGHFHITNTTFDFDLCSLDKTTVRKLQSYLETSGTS
rRNA inh HTS OD600: also measured in rRNA inh HTS; calls as there; OD600 change, %; measured here: OD600 growth;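 optical density of the mix in the first replicate; 0 = DMSO median and -100 = no signal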
rRNA inh HTS RFP: recorded beside rRNA inh HTS, whose call it bears; RFP signal change, %; measured here: RFP humanized mutant strains;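 first replicate; 0 = DMSO median and -100 = no signal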
Starred values were filed as active, the others as inactive; i = inactive; ? = inconclusive; nt = not tested or not shown.

molecule	rRNA inh HTS	rRNA inh HTS OD600	rRNA inh HTS RFP	T cruzi repl	ALR inh	RanGTP-Impb inh	Calb FLC	Beta apoptosis	FGF22 binding	AF4-AF9 inh
Cc1cc(C)n(C(=O)CNC(=O)c2cccs2)n1	10	21	6.9	-10	1	0.0	-1	-3	nt	nt
O=C(NCc1ccccn1)c1c(O)c2c([nH]c1=O)CCCC2	3	5	-2.9	-18	2	4.0	9	nt	i	-1.3
Cc1cccc(NC(=O)c2ccc3ccccc3n2)c1C	nt	nt	nt	8	-5	?	-5	nt	nt	nt
CC(=O)C1=C(C)NC(SCc2cccc3ccccc23)=C(C#N)C1c1ccco1 (stereo not drawn)	2	-6	4.7	9	99*	-1.1	-23	5	i	5.7
CC(C)[C@@H](CSc1ccccc1)N1CCN(Cc2ccccc2)CCC1=O	-2	-8	-2.3	-9	nt	2.4	-11	-1	i	-7.4
O=C(NC1CCCCC1)c1ccc(S(=O)(=O)N2CCOCC2)cc1	nt	nt	nt	-20	5	1.4	-13	0	nt	nt
CC(C)CCNC(=O)CCNS(=O)(=O)c1ccc(Cl)cc1	nt	nt	nt	-15	2	5.4	21	-11	nt	nt
CCOC(=O)c1cc(-c2ccccc2)n(Cc2cc(CC)no2)n1	0	2	-1.0	-8	nt	?	5	-13	i	-2.8
COc1cc(C(=O)NCCSc2ccccc2)cc(OC)c1OC	-7	-7	0.2	-12	-1	2.7	0	1	i	-7.5
Cc1cccc(-c2n[nH]c(=S)n2/N=C/c2ccc(C)o2)c1	-4	3	-7.2	0	11	-2.0	24	1	i	-13
COc1cc(OC)c2c3c(c(C4CCCCC4)nc2c1)CCC3	-25	-45	3.8	-16	0	3.3	-1	nt	i	nt
CS(=O)(=O)N(CC(=O)N1CCOCC1)c1cccc([N+](=O)[O-])c1	10	10	-0.3	-11	-5	-1.5	-40	nt	i	1.0
COc1ccc(N2CCN(S(=O)(=O)CCNC(=O)COc3cccc(OC)c3)CC2)cc1	-5	-12	-1.6	-14	49	2.3	-1	8	i	-7.3
NS(=O)(=O)c1cnccc1Nc1cccc(F)c1	-2	2	-3.1	7	-5	1.0	-4	nt	i	nt
CCC1CN(C(=O)N2CCC(C(=O)NCc3ccco3)CC2)c2ccccc2O1 (stereo not drawn)	12	-2	2.4	-17	2	-2.6	18	-5	i	2.2
COc1cccc(CNn2c(-c3cccc(C)c3)nc3ccccc3c2=O)c1	nt	nt	nt	22	-4	2.5	2	18	nt	nt
CCOCCCN(C(=O)CCC(=O)Nc1cc(C)on1)C(C(=O)NC(C)(C)C)c1ccccc1Cl (stereo not drawn)	2	-3	-0.8	-3	nt	9.5	24	-1	i	1.4
CC(C)Cn1c(=O)[nH]c2ccccc21	nt	nt	nt	-8	-12	2.2	-10	2	nt	nt
CCCc1cc(C(N)=O)c(NC(=O)C2CCCO2)s1 (stereo not drawn)	nt	nt	nt	-5	-1	2.2	-4	-4	nt	nt
CS(=O)(=O)c1ccc(Cl)c(NC(=O)c2ccc3ccccc3c2)c1	nt	nt	nt	22	-4	?	3	-3	nt	nt
O=C(O)c1cccc(N=C2NC(=O)C(CO)(CO)S2)c1	8	8	1.0	-5	-2	2.9	-3	-4	i	-3.8
Cc1ccc(C(=O)N/N=C\c2cc3c(cc2Br)OCO3)cn1	5	8	-1.8	-1	1	-2.7	-5	-2	i	-6.6
O=C(O)CCCCCN1C(=O)C(O)=C(C(=O)/C=C/c2ccccc2)C1c1cccc([N+](=O)[O-])c1 (stereo not drawn)	16	22	1.7	0	6	1.4	-4	-1	nt	-0.9
C=CCN1CCN(C(=O)c2ccc(-c3ccccc3)cc2)CC1	nt	nt	nt	-12	-7	1.9	7	-2	i	-3.6
N#CC1=C(N)OC2=C(C(=O)CCC2)C12CCN(C(=O)OCc1ccccc1)CC2	nt	nt	nt	-25	5	-1.2	2	-5	nt	nt
CC(=O)N1CCN(C2=Nc3cccc4cccc2c34)CC1	nt	nt	nt	-9	-46	-3.4	8	7	nt	nt
Cc1cc(C)c(C)c(S(=O)(=O)Nc2cccnc2)c1C	4	2	-2.3	-5	-5	4.3	6	-7	i	-1.6
CC(OC(=O)c1ccc(S(=O)(=O)N2CCOCC2)cc1)c1ccccc1 (stereo not drawn)	-9	-8	0.9	2	-21	-1.3	1	0	i	-0.8
O=C(Nc1ccccc1)c1ccco1	18	16	3.1	-5	8	1.5	2	-7	i	-1.2
O=C(CCCN1C(=O)/C(=C/c2ccco2)SC1=S)Nc1ccccc1	nt	nt	nt	5	-10	-0.6	38	-12	nt	nt
CN(CC(=O)Nc1cccc(F)c1)C(=O)CN1C(=O)NC2(CCCCC2)C1=O	2	5	-0.8	-6	-1	0.7	-6	1	i	2.5
COc1ccc([N+](=O)[O-])cc1NC(=O)CC(C)c1ccccc1 (stereo not drawn)	-30	-26	-1.9	-12	-18	1.1	-2	-3	nt	nt
Cc1ccc(S(=O)(=O)N2CCOCC2)cc1C(=O)Nc1c(C)n(C)n(-c2ccccc2)c1=O	nt	nt	nt	0	nt	4.1	0	-18	nt	nt
N#Cc1c(/N=C/c2cc(Br)cs2)sc2c1CCC2	nt	nt	nt	-3	13	-1.7	?	0	nt	nt
O=C(Nc1ccsc1C(=O)O)c1ccc(Cl)cc1	-16	-28	-3.4	1	97*	2.5	-2	5	nt	1.7
COCCn1c(CN2CCN(c3ccc(OC)cc3)CC2)nc2c1c(=O)n(C)c(=O)n2C	4	2	-1.0	-2	69	-4.7	6	1	nt	nt
N#Cc1c(NC(=O)CCC(=O)O)sc2c1CCCC2	nt	nt	nt	-18	16	-1.8	11	-2	nt	nt
CCCC(=O)NC(Nc1cc(C(F)(F)F)ccc1Cl)C(Cl)(Cl)Cl (stereo not drawn)	nt	nt	nt	9	-7	-2.7	-8	11	nt	nt
CC1CN(C(=O)Cn2cnc3c2c(=O)n(C)c(=O)n3C)CC(C)O1 (stereo not drawn)	nt	nt	nt	-6	-1	2.1	-12	-4	nt	nt
COc1ccc(OC)c(Nc2nc(-c3cccs3)cs2)c1	nt	nt	nt	30	0	?	0	-6	nt	nt
COc1ccc(CNC(=O)CSc2nnnn2Cc2ccccc2)cc1	nt	nt	nt	-9	-4	-6.0	1	2	nt	nt
COC(=O)CCCC1=CC2=C(c3ccccc3)C(=O)C(C)(OC(=O)C3CCCC3)C(=O)C2=CN1Cc1ccc2c(c1)OCO2 (stereo not drawn)	3	-3	-9.5	11	-36	6.8	19	-3	i	10
O=C(O)CCC(=O)N1CCN(c2nc3ccccc3s2)CC1	nt	nt	nt	-7	-10	2.5	-7	-2	nt	nt
O=C(Nc1ccccc1)c1ccccc1OCc1cccc([N+](=O)[O-])c1	5	12	9.1	20	-4	0.2	0	-3	i	-13
CCOC(=O)c1c(-c2ccccc2)csc1NC(=O)CCN1C(=O)c2ccccc2C1=O	3	-8	-6.2	2	nt	5.5	18	-8	i	-1.4
COc1cc(/C=C/C(=O)N2CCOCC2)ccc1OCc1ccccc1	nt	nt	nt	8	nt	-0.3	5	4	nt	nt
O=S(=O)(c1ccc2c(c1)C(O)c1ccccc1CC2)C(F)(F)F (stereo not drawn)	-22	-35	-16	nt	5	nt	nt	33	i	-42
Cc1cc2oc3ccc(NCCCn4ccnc4)cc3c(=O)c2cc1C	nt	nt	nt	27	-6	-53	86*	nt	nt	nt
CC(=O)c1c(C)[nH]c(C(=O)OCC(=O)N2CCN(S(=O)(=O)c3ccc(C)cc3C)CC2)c1C	nt	nt	nt	15	-4	-3.2	-7	-3	nt	nt
CC(=O)OC(C(=O)NCc1ccc2c(c1)OCO2)c1ccccc1Cl (stereo not drawn)	nt	nt	nt	0	4	0.3	-41	1	nt	nt

Following part.
molecule	rRNA inh HTS	rRNA inh HTS OD600	rRNA inh HTS RFP	T cruzi repl	ALR inh	RanGTP-Impb inh	Calb FLC	Beta apoptosis	FGF22 binding	AF4-AF9 inh
Cc1ccccc1N1C(=O)c2cccc3c(N(C)CCO)ccc(c23)C1=O	nt	nt	nt	-29	-28	-119	3	8	nt	nt
CSc1nsc(SCC(=O)Nc2nncs2)n1	4	5	3.8	-18	72	0.4	33	-3	i	5.4
Cc1ccc(S(=O)(=O)Nc2ccccc2C(=O)N2CCOCC2)cc1	3	8	-2.9	-6	-7	1.9	-6	0	i	-1.7
CCOC(=O)c1c(N)sc(=S)c2c1CCC2	nt	nt	nt	0	-2	-2.2	17	3	nt	nt
CCOc1ccc2[nH]c(=O)c(CN(Cc3nnnn3CCc3ccccc3)CC3CCCO3)cc2c1 (stereo not drawn)	nt	nt	nt	16	-21	-5.1	-2	-8	nt	nt
Fc1cccc(Cl)c1Cn1nnc(-c2ccc(N3CCOCC3)cc2)n1	nt	nt	nt	13	nt	2.5	-1	9	nt	nt
COc1ccc(N/C(=N\c2nc(C)cc(C)n2)NC(=O)C(C)C)cc1OC	nt	nt	nt	6	-4	?	-2	-5	nt	nt
CC1CCN(S(=O)(=O)c2ccc(Br)s2)CC1	-29	-26	-5.3	12	-1	2.1	-3	nt	nt	nt
CC(C)(C)OC(=O)C[C@@H]1C/C=C\C[C@H](CC(=O)N(CCO)Cc2ccccc2)C(=O)NC[C@H](c2ccccc2)OC1=O	-25	-21	19	nt	-3	nt	nt	-2	i	2.2
COc1cc(/C=N/NC(=O)COc2ccc([N+](=O)[O-])cc2)ccc1OCC(=O)N1CCOCC1	12	8	-0.2	-5	-10	-1.0	-4	5	i	0.0
CCC(C(=O)NCCC1=CCCCC1)n1nc(C)c2c(C)n(-c3ccccc3)nc2c1=O (stereo not drawn)	-3	-9	2.4	18	-5	1.0	-3	0	i	0.9
COc1ccc(C(=O)O/N=C(\N)c2ccccn2)c(OC)c1	-4	-2	-5.2	-2	-3	-1.0	-13	7	i	-0.3
O=C1CC(C(=O)N2CCc3ccccc32)CN1c1cccc(C(F)(F)F)c1 (stereo not drawn)	3	9	-4.0	nt	nt	nt	nt	2	i	0.8
CCCN(CCC)CCNC(=O)c1cc2c(=O)n(C)c3ccccc3c2n1C	-9	-13	-1.4	13	nt	2.8	0	2	i	-3.6
COc1ccccc1N1CCN(C(=O)c2sc3ncnc(N4CCN(c5ccccn5)CC4)c3c2C)CC1	nt	nt	nt	12	2	5.2	-15	-2	nt	nt
COc1ccc(CSc2nnnn2-c2ccc(O)cc2)cc1F	-5	-5	4.0	0	-31	-2.5	0	9	i	1.7
COc1ccc(Nc2nc(-c3sc(NC(C)=O)nc3C)cs2)cc1	nt	nt	nt	-6	-24	0.2	-6	-1	nt	nt
COc1ccc(-c2cc(C(F)(F)F)nc(SCC(=O)N(C)Cc3cn(C)nc3C)n2)cc1OC	-9	-2	-12	-4	-11	-0.1	6	3	i	-11
COc1ccc(N(CC(O)CN2CCCCC2)S(=O)(=O)c2ccc(C)cc2)cc1 (stereo not drawn)	nt	nt	nt	-24	2	3.5	-12	-3	nt	nt
CC(C)(C)n1ncc2c(=O)n(CC(=O)N3CCc4ccccc43)cnc21	nt	nt	nt	8	-4	-1.9	7	-2	nt	nt
N#Cc1ccc(-c2ccc(F)cc2)nc1Oc1ccc(F)cc1	nt	nt	nt	-1	-10	-3.6	-10	0	nt	nt
Fc1ccccc1CSc1nc2ncc(Br)cc2[nH]1	nt	nt	nt	-8	-4	4.0	-3	0	nt	nt

This is a subset (hit frequency here may not be typical).
